Assay outcomes as filed in PubChem BioAssay.
NPYLR7 ag = mosquito NPYLR7 agonism; HEK293T NPYLR7/Galpha15, GCaMP6s calcium fluorescence; activation, % at 10 µM; hit rate 0.15% among 270,000; AID 1259423; in the data active means activation above about 40%;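 further: 0% = vehicle and 100% = reference agonist at the receptor; some compounds past the cut are filed as inactive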
NPYLR7 ag max-min = recorded beside NPYLR7 ag, whose call it bears; activation, %; measured here: Max-Min RFU normalised activation; some inactives read as strong as hits;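 span of the calcium signal over five minutes; 0% = vehicle and 100% = native peptide agonist; compound fluorescence can raise it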
Active calls of the source: *; & = joins results of further samples.

Below each SMILES – NPYLR7 ag | NPYLR7 ag max-min
- CCCCNCC(=O)N1CC(=O)N(c2ccc(F)cc2)C1
  -1 | -14
- COc1ccc(C)c2sc(N(CC3CCCO3)C(=O)c3cc(C)no3)nc12 (stereo not drawn)
  0 | 4
- c1cc(CN2CCCC(N3CCN(Cc4ccc5c(c4)OCO5)CC3)C2)cs1 (stereo not drawn)
  1 | -1
- O=C1CSc2ccc(C(=O)N(Cc3ccccn3)c3ccc(F)cc3)cc2N1
  -2 | -36
- Cc1sc2nc3scc(CC(=O)NCCO)n3c(=O)c2c1C
  5 | 6
- Cc1nc2sccn2c1C(=O)N1CCCC(Nc2ccc(C(C)C)cc2)C1 (stereo not drawn)
  2&18 | 2&-1
- N=C(N)Sc1cn(CCNC(=O)c2cccs2)c2ccccc12
  -10 | -14
- COc1cc(C2c3cc4c(cc3OC(=N)C2C#N)OCO4)cc(Br)c1OC (stereo not drawn)
  2 | 2
- Cc1ccc(NC(=O)CS(=O)(=O)Cc2noc(CC(C)C)n2)cc1F
  1 | 3
- COc1cccc(Cc2nsc(Oc3ccc(C(=O)N4CCN(c5ccccc5F)CC4)cc3OC)n2)c1
  -1 | 3
- CN(C)c1nc(N)c(C(=O)N=C(N)N)nc1Cl
  6 | -11
- CCn1cnnc1CNC(=O)Nc1ccc(-n2ccnn2)cc1
  6 | 2
- COc1nc2c(cc1C(=O)N1CCCn3nc(C(=O)O)cc3C1)CCC2
  14 | -3
- O=C(c1cc2ccccc2oc1=O)N1CCC2(CCCN(Cc3ccccc3F)C2)C1 (stereo not drawn)
  8 | -3
- CCCc1cc(NCc2cccnc2)n2nc3nc(C)cc(C)c3c2n1
  3 | 5
- Brc1ccc2cc(Oc3ncccn3)ccc2c1
  13 | 4
- CC(C)N(Cc1nccn1C)C(=O)c1cc(COc2ccc(-n3cncn3)cc2)on1
  -5 | -7
- COc1ccc2c(c1)C1(SCCN1C(=O)c1cccs1)C(=O)N2Cc1ccccc1C (stereo not drawn)
  3 | 6
- CCCN1C(=O)CNC1=S
  5 | 4
- COc1cc(=O)n(-c2ccccc2C)nc1C(=O)Nc1ccccc1C
  1 | -1
- Cc1c(C)n2c3c(=O)[nH]c(=O)n(C)c3nc2n1-c1ccc(O)cc1
  2 | 10
- CCNC(=O)N(CCOC)Cc1cc(Cl)ccc1OS(=O)(=O)c1ccc(NC(C)=O)cc1
  -5 | -6
- O=C(NCc1ccc(Cl)s1)c1ccc2c(c1)OCCO2
  7 | 8
- CCCCCSc1nc2c(c(=O)[nH]c(=O)n2C)n1Cc1cccc(C)c1
  7 | 6
- COc1cccc(C(CN2CCN(C(=O)CCC3CCCC3)CC2)OCc2cccc(Cl)c2)c1 (stereo not drawn)
  -3 | -1
- NC(=O)CC1CCCCN1C(=O)CNc1cccc(C(F)(F)F)c1 (stereo not drawn)
  3 | 6
- NCCCS(=O)(=O)O
  5 | -13
- c1csc(-c2nnc(CSc3nnc(-c4ccc5c(c4)OCO5)o3)o2)c1
  -3 | -6
- COCCCNC(=O)c1cc2n(n1)CCN(Cc1cccc(OC)c1)C2=O
  13 | 5
- COCCCn1c(SCC(=O)N(C)C(C)c2ccccc2)nc2sc3c(c2c1=O)CCCC3 (stereo not drawn)
  -5 | -6
- Cc1cccc(-n2nnc3c(=O)n(Cc4ccccc4)cnc32)c1
  0 | -6
- Brc1c(-c2cccs2)nc2ccccn12
  -1 | -2
- CC(=O)N1CCN(C(=O)c2ccccc2CSc2nc(C)cs2)CC1
  8 | 5
- O=C(CCC1CCN(Cc2ccon2)CC1)NCC1CCCO1 (stereo not drawn)
  10 | 7
- CC(NC(=O)c1cc2n(n1)CCN(Cc1cccc(F)c1)C2=O)c1ccccc1 (stereo not drawn)
  13 | 18
- CC(=NNc1ncc(Cl)cc1Cl)c1ccc2c(c1)OCO2
  2 | 0
- COCCn1c(=NC(=O)c2cc(C)on2)sc2cc(F)cc(F)c21
  11 | 7
- Cc1nn(-c2nc(C)c(C)c(=O)[nH]2)c(C)c1CCC(=O)NCc1c(F)cccc1F
  5 | 0
- Cc1cc(OCC(=O)Nc2ccc(CS(N)(=O)=O)cc2)ccc1C(C)C
  1 | -5
- O=C(c1ccnc(Cl)c1)N1CCN(c2nccc(-c3cccs3)n2)CC1
  20 | 17
- O=C(c1cn[nH]n1)N1CCCN(c2nc3ccc(Cl)cc3s2)CC1
  2 | 7
- CCOCCCn1c(SCc2ccc(SC)cc2)nc2cc(S(=O)(=O)N3CCOCC3)ccc21
  12 | 1
- COc1ccc(CCN(C)C(=O)C(NC(=O)OCc2ccccc2)SC(C)C)cc1OC (stereo not drawn)
  -7 | -14
- COc1ccc(CCN(C)C(=O)C(C)(C)CCCOc2cc(C)ccc2C)cc1OC
  -6 | -13
- Cc1nnc(CN2CCCc3cc(C(C)C)ccc32)n1C
  0 | 0
- CNc1cnc(-c2ccccc2)cn1
  1 | 1
- O=C1CC(c2cccs2)Cc2nc(NC3CC3)ncc21 (stereo not drawn)
  8 | 4
- COc1ccc(C2(C(=O)O)CCCCC2)cc1
  0 | -4
- CCCCn1c(=O)[nH]c(=O)c2[nH]c(-c3ccc(C#N)cc3)nc21
  1&7 | 0&1
- COc1ccc(CCNC(=O)C2CCC(=O)N(C3CCCC3)C2)cc1 (stereo not drawn)
  1 | -3
- CC(=O)Nc1ccc(S(=O)(=O)Nc2nc(C)cc(C)n2)cc1
  10 | 8
- Cc1ccc(=O)n(CC(=O)Nc2ccc(Sc3ccccc3Cl)cc2)n1
  -1 | -1
- CC1CCc2c(sc3nc(C(C)C)nc(N4CCN(C(=O)c5cccc(Br)c5)CC4)c23)C1 (stereo not drawn)
  -2 | -3
- CC[P+](c1ccc(N(C)C)cc1)(N1CCOCC1)N1CCOCC1
  5 | 4
- NCCCCOc1ccc(F)cc1
  -5 | -3
- C#CCn1c(=NC(=O)c2cc(C)no2)sc2cc3c(cc21)OCO3
  1 | 3
- Cc1oc(C)c(-c2ccccc2)c1C(=O)Nc1ccccc1
  3 | 0
- CCc1c(C(=O)NC2CCCC2)[nH]c(C)c1C(C)=O
  2 | 0
- O=C(O)c1ccc(CC2CCCN(C(=O)C3CCS(=O)(=O)CC3)C2)cc1 (stereo not drawn)
  17 | 7
- Cn1c(=O)n(Cc2ccc(Cl)cc2)c(=O)c2c1nc1n2CCN1Cc1ccccc1
  2 | 12

Later entries
Below each SMILES – NPYLR7 ag | NPYLR7 ag max-min
- O=C(c1ccco1)N1N=C(c2cccc([N+](=O)[O-])c2)CC1c1ccc2nccnc2c1 (stereo not drawn)
  -1 | 9
- Oc1ccccc1-c1ccno1
  1 | -2
- CCOc1ccc(/C=N\NC(=O)Cc2nnc(NC(=O)c3cccc(C)c3)s2)cc1O
  -4 | -7
- CCOC(=O)CCc1c(C)nc2ncnn2c1N1CCN(C(=O)Nc2cccc(C#N)c2)CC1
  2 | -1
- CCOc1ccc(-n2cnnc2)cc1-n1cccc1
  0 | 2
- COc1cc(F)ccc1COc1ccc2c(C3CC3)noc2n1
  24 | 13
- O=C(O)c1ccccc1CN1CCC(c2ccccc2Cl)C1 (stereo not drawn)
  7 | 3
- CCOc1ccc(C#N)cc1NC(=O)NC1CCC(C(=O)NC)CC1 (stereo not drawn)
  7 | 4
- O=C1NC(=S)SC1=Cc1ccc(C(=O)O)cc1
  13 | 9
- COc1ccc(C)c2sc(N(Cc3cccnc3)C(=O)Cc3ccccc3)nc12
  -9 | -10
- CCOc1ncccc1CN1CCCC(C(=O)Nc2ccc(C(C)(C)C)cc2)C1 (stereo not drawn)
  -15 | -19
- CN(C1CCCCC1)S(=O)(=O)c1ccc(SC2CCOC2=O)nc1 (stereo not drawn)
  4 | -1
- CCOc1ccccc1N=Nc1c(-c2ccccc2)[nH]n(-c2nc(-c3ccccc3)cs2)c1=O
  5 | -3
- COc1cc(OC)cc(C2CCN(C(=O)c3cc[nH]c3C)C2)c1 (stereo not drawn)
  -25 | -25
- CCOC(=O)c1c(C)[nH]c(C(=O)CN2C(=O)NC3(CCC(CC)CC3)C2=O)c1C (stereo not drawn)
  9 | 6
- Cc1c(C)n2c3c(=O)n(CCN4CCOCC4)c(=O)n(C)c3nc2n1-c1ccccc1F
  -1 | 18
- CC12C=CC(O1)C1C(=O)N(c3ccc(Cl)c(C(F)(F)F)c3)C(=O)C12 (stereo not drawn)
  -10 | -16
- Cc1ccc(CN(CCc2ccccc2)C(=O)CN(C(=O)Nc2ccccc2C)C2CCCCC2)o1
  -12 | -21
- COc1ccccc1-c1noc(CSc2nc3ccccc3c3nc4ccccc4n23)n1
  6 | 5
- Cn1c2ccccc2c2cc(C(=O)N3CCC(CO)(Cc4ccccc4)CC3)ccc21
  8 | 1
- CC(C)N(C(=O)CSc1nnc(-c2ccc3c(c2)OCO3)o1)C(C)C
  1 | 3
- CNc1nc(CN2CCOC(c3ccc(Cl)c(Cl)c3)C2)cs1 (stereo not drawn)
  3 | 2
- COc1ccc(C(C)=O)cc1Nc1cc(C)nc2cc(C(F)(F)F)ccc12
  5 | 3
- CCCCN(Cc1ccsc1)C(=O)c1occc1C
  -4 | -9
- CC(C)(O)c1ccccc1CC[C@@H](SCC1(CC(=O)O)CC1)c1cccc(/C=C/c2ccc3ccc(Cl)cc3n2)c1
  -3 | -6
- COc1ccc(-c2cc(C(=O)N3CCN(C/C=C/c4ccccc4)CC3)n3nc(C(C)(C)C)cc3n2)cc1
  12 | 16
- Cc1nc(C2CCNCC2)cc(N(C)Cc2ccsc2)n1
  0 | -1
- CCCN(CC(=O)Nc1c(-c2ccccc2)c(C)nn1-c1ccccc1C)C(=O)Nc1c(C)cccc1C
  14 | 13
- CN(C(=O)c1ccc(C2CCCCC2)cc1)c1c(N)n(Cc2ccccc2)c(=O)[nH]c1=O
  0 | 0
- CC(=O)NCc1ccc(-c2csc(C(C)(C)C)n2)o1
  -1 | -2

Profiles, quoted from the list. Order of screens: NPYLR7 ag, NPYLR7 ag max-min
`Cc1nc(C2CCNCC2)cc(N(C)Cc2ccsc2)n1` is listed with 0, -1
`CN(C(=O)c1ccc(C2CCCCC2)cc1)c1c(N)n(Cc2ccccc2)c(=O)[nH]c1=O` is listed with 0, 0
`CCCCN(Cc1ccsc1)C(=O)c1occc1C` is listed with -4, -9

Reformatted as labelled records: entries from further up
CC(=O)NCc1ccc(-c2csc(C(C)(C)C)n2)o1
  NPYLR7 ag: -1	NPYLR7 ag max-min: -2
CNc1nc(CN2CCOC(c3ccc(Cl)c(Cl)c3)C2)cs1 (stereo not drawn)
  NPYLR7 ag: 3	NPYLR7 ag max-min: 2

The list continues:
Below each SMILES – NPYLR7 ag | NPYLR7 ag max-min
- Cc1nc2ccc(S(=O)(=O)NCCCn3nc(-c4ccco4)ccc3=O)cc2s1
  1 | 0
- CCN(Cc1noc(C)n1)C(=O)c1cc(COc2ccccc2F)[nH]n1
  32 | 16
- CNC(=O)[C@@]1(OCc2cccc(F)c2)CC(OCc2cccc(Cl)c2)[C@H](O)[C@H](O)C1 (stereo partly drawn)
  6 | 18
- C=c1ccc(C)cc1=C1NN=C(NC(=O)c2cc(OC)cc(OC)c2)O1
  8 | 2
- CC1CN(c2cc(Oc3ccc(F)c(F)c3)ncn2)CCN1C(=O)/C=C/c1ccccc1 (stereo not drawn)
  8 | 7
- C(=C\c1nn2cnnc2s1)/c1ccccc1
  1 | 0
- COc1cccc(C(C2Sc3nc(C)nn3C2=O)N2CCN(c3ccccc3F)CC2)c1 (stereo not drawn)
  29 | 28
- CC(C#N)OC(=O)c1ccccc1NCc1ccco1 (stereo not drawn)
  -3 | -5
- C=CCn1c(=O)c2c(nc3n2CC(C)CN3c2ccc(CCCC)cc2)n(C)c1=O (stereo not drawn)
  4 | 1
- Cc1ccccc1CN(CC(C)C)CC(O)COC(C)C (stereo not drawn)
  17 | 19
- CCOC(=O)c1c(C)[nH]c(C(=O)C(=O)N2CCN(c3ccccc3F)CC2)c1-c1ccccc1
  8 | 0
- COc1ccccc1OCC(=O)NCC1CCCN(C(=O)c2ccc3c(c2)OCO3)C1 (stereo not drawn)
  6 | 1
- Cc1cccn2c(=O)cc(CSc3nnc(-c4ccco4)n3C3CCCCC3)nc12
  18 | 15
- COc1cccc(CCNC2CCN(c3ccc(NC(=O)c4ccc(C)cc4C)cc3)CC2)c1
  14 | 3
- COc1ccc(/C=C/C(=O)NNC(=O)COc2ccc(C)cc2)cc1
  -11 | -15

3 compounds picked at random from the list so far, as already listed:
Below each SMILES – NPYLR7 ag | NPYLR7 ag max-min
- COc1ccc(/C=C/C(=O)NNC(=O)COc2ccc(C)cc2)cc1
  -11 | -15
- C(=C\c1nn2cnnc2s1)/c1ccccc1
  1 | 0
- CCN(Cc1noc(C)n1)C(=O)c1cc(COc2ccccc2F)[nH]n1
  32 | 16

Later entries
Below each SMILES – NPYLR7 ag | NPYLR7 ag max-min
- CCC(C)N(Cc1cccc(Cl)c1)C(=O)CCc1c(C)nn(C)c1C (stereo not drawn)
  22 | 9
- CCC1CCCCN1C1=CC(=O)OC12CCCCC2 (stereo not drawn)
  12 | 10
- O=C(Nc1cccc2cccnc12)C(=O)NC1CCc2ccccc21 (stereo not drawn)
  5 | 4
- CC(C)(C)c1cc(N2CCOCC2)nc(SCc2ccc(C(=O)NC3CC3)cc2)n1
  2 | 8
- Cc1cccc(-c2nc(SCC(=O)Nc3cc(C)on3)c3c(=O)n(C)c(=O)n(C)c3n2)c1
  -5 | -8

An excerpt of these results, with each value named.
O=C(Nc1cccc2cccnc12)C(=O)NC1CCc2ccccc21 (stereo not drawn)
  NPYLR7 ag: 5; NPYLR7 ag max-min: 4
CCC1CCCCN1C1=CC(=O)OC12CCCCC2 (stereo not drawn)
  NPYLR7 ag: 12; NPYLR7 ag max-min: 10
Cc1cccc(-c2nc(SCC(=O)Nc3cc(C)on3)c3c(=O)n(C)c(=O)n(C)c3n2)c1
  NPYLR7 ag: -5; NPYLR7 ag max-min: -8
CCC(C)N(Cc1cccc(Cl)c1)C(=O)CCc1c(C)nn(C)c1C (stereo not drawn)
  NPYLR7 ag: 22; NPYLR7 ag max-min: 9

This is a subset. The share of hits here may be higher or lower than overall.
